# High-throughput results from PubChem BioAssay.
# gsp ag = qHTS for Agonist of gsp, the Etiologic Mutation Responsible for Fibrous Dysplasia/McCune-Albright Syndrome: qHTS | gsp mutant cells, cAMP HTRF, 30 min; control for the full effect not named in the record | Potency, µM (doses to about 76.9 µM), for the others: at the top dose activation (cAMP increase), most hits filed as activators | 340,000 tested, 0.13% active; active = well fitted activation curve with a large enough effect; inconclusive = small, poorly fitted or top-dose-only effect, or another doubt; inactive = no such curve, though single readings can be large or run the other way; cell line not stated here;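 also: phosphodiesterase inhibitor Ro 20-1724 added with compounds to block cAMP breakdown; potency is read from the fitted curve at half-maximal effect; nearly all actives have a fitted effect of over 60% in size; about a fifth of the inactives were tested at one dose only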
#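 Cells stably selected in G418 were plated at 2000/well, grown 16-24 hr, then given compounds in DMSO with the PDE inhibitor […] (300 uM solution added) for 30 min at 37C; cAMP was read by HTRF.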
# ClpP mod = qHTS Assay for Activators of ClpP | ATP-dependent Clp protease proteolytic subunit (Bacillus subtilis (strain 168)), P80244 | purified B. subtilis ClpP, FRET peptide cleavage, 20 min | Potency, µM (doses to about 57.5 µM), inactives show top-dose activity change, negative = active | 340,000 tested, 1.9% active | AID 651965, 2013; active = well fitted falling curve with a large enough effect; inconclusive = small, poorly fitted or top-dose-only effect; inactive = no such curve, though single readings can be large or run the other way; also: potency is read from the fitted curve at half-maximal effect; the source files actives as falling curves though it sought activators and does not explain the sign; nearly all actives have a fitted effect of over 65% in size; many hits overshoot -100%
# Target sequence (P80244 whole entry, looked up): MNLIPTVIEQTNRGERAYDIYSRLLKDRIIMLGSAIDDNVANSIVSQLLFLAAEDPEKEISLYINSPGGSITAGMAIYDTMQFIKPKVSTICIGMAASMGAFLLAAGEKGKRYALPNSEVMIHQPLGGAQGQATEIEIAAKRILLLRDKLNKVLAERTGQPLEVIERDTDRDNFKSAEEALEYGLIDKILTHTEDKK
#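 Buffer: 100 mM Tris/HCl pH8, 100 mM KCl, 0.05% low protease BSA, 2.5% glycerol, 0.01% Tween-20. ClpP 10 microg/mL final; 20 min RT; delta FRET normalized to ADEP and DMSO controls.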
# Sfp inh = qHTS Assay for Inhibitors of Bacillus subtilis Sfp phosphopantetheinyl transferase (PPTase); Biochemical Sfp PPTase activity, qHTS; AID 1490, 2009; 4'-phosphopantetheinyl transferase ffp (Bacillus subtilis), Q9F4F7; 310,000 tested, 3.5% active; Potency, µM, inactives show max response, negative = inhibition, actives largely listed as inhibitors; active = well fitted inhibition curve with a large enough effect; inconclusive = small, poorly fitted or top-dose-only effect, or another doubt; inactive = no such curve, though single readings can be large or run the other way;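 also: the enzyme is Sfp with the accession as filed and its product quenches rhodamine fluorescence; potency is read from the fitted curve at half-maximal effect; 0% = enzyme reaction without inhibitor and -100% = no enzyme wells; top concentration of the series not given in the record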
#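 Fluorescence-quenching assay: 15 nM Sfp-PPTase preincubated 15 min at room temperature with compound, then 5 uM rhodamine-CoA and 12.5 uM BHQ-2-labelled YbbR peptide added. Fluorescence (ex 525/em 598 nm) read at start and after 30 min; difference gives rate.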
# gsp antagonist = qHTS for Antagonists of gsp, the Etiologic Mutation Responsible for Fibrous Dysplasia/McCune-Albright Syndrome: qHTS; Potency, µM (series often up to 76.9 µM), for the others: top-dose activity change, negative = inhibition, most hits filed as inhibitors; gsp-mutant cells, cAMP HTRF, 30 min; control for the full effect not named in the record; AID 624288, 2012; 340,000 tested, 0.4% active; active = falling curve of any shape with a large fitted effect; inconclusive = falling curve, mostly with a smaller effect; inactive = flat or rising curve; cell line not stated here;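 also: intracellular cAMP measured with PDE inhibitor Ro 20-1724 present during compound exposure; potency is read from the fitted curve at half-maximal effect; % is scaled to controls: 0 for no effect and ±100 for the full control effect; nearly all actives have a fitted effect of over 65% in size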
#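 Cells in G418 medium, seeded 16-24 h, 37C; buffer exchange to DPBS + 1 mM CaCl2, 0.5 mM MgCl2, 0.05% BSA; cpds in DMSO + […] (300 uM stock), 30 min 37C; HTRF cAMP detection.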
# D2 agonist = Beta-Arrestin HTS for Positive Allosteric Modulators of the Human D2 Dopamine Receptor: Agonists; DiscoveRx PathHunter D2 beta-arrestin, luminescence, 90 min; 100% = 57 uM dopamine signal; AID 624465, 2012; activation, % (concentration not given with the values); D(2) dopamine receptor (Homo sapiens), P14416; 360,000 tested, 0.084% active; in the data active = activation above about 40%; inconclusive = about 15% to 40%; inactive = below about 15%; also: compound concentration not given in the record; the text of the record calls up to 30% inactive
# Target sequence (P14416 whole entry, looked up): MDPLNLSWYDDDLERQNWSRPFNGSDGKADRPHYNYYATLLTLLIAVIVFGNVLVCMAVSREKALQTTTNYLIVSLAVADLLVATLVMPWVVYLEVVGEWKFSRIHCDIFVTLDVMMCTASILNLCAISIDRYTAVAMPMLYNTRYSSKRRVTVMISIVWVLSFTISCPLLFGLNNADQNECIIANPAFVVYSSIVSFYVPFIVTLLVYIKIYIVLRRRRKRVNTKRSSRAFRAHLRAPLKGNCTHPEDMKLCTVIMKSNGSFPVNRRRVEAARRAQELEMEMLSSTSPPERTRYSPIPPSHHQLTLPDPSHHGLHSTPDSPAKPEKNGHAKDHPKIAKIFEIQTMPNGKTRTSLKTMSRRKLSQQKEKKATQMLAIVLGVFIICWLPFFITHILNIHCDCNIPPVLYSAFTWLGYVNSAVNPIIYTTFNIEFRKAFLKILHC
#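 Agonist mode: compounds alone added to overnight-plated D2 PathHunter cells for 90 min at 37 C, with 57 uM final dopamine (EC100) defining full response. Beta-arrestin recruitment detected by chemiluminescent reagent, read after 1 h at ambient temperature.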
# Menin MLL FP FL = qHTS Assay for Inhibitors Targeting the Menin-MLL Interaction in MLL Related Leukemias: Competition With Fluorescein Labeled MLL-derived Peptide. Fluorescence polarization, fluorescein-MLL peptide displacement from menin. FP activity change, % at 61.4 µM. 290,000 tested, under 10 active; inconclusive = falling polarisation curve, or a change in total fluorescence; inactive = total fluorescence flat and polarisation flat or rising; no compound was filed as active; the % refers to the polarisation; negative = inhibition;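 also: % of control where 0% means no effect; inhibitors lower the polarisation; unlabelled MLL peptide was the positive control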
# PINK1 expr mod = A Quantitative High throughput Screen to Identify Chemical Modulators of PINK1 Expression. AID 624263, 2012. Potency, µM (titrated, usually from 76.6 µM), without a hit: top-dose activation (PINK1 increase), actives largely listed as activators. 410,000 tested, 0.2% active. PINK1 immunofluorescence, high-content cytometry, 24 h; active = well fitted activation curve with a large enough effect; inconclusive = small, poorly fitted or top-dose-only effect; inactive = flat fitted curve, though single readings scatter; cell line not stated here;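 also: potency is read from the fitted curve at half-maximal effect; % of control where 0% means no effect; nearly all actives have a fitted effect of over 65% in size; a mitochondrial uncoupler was the plate control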
#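 Decision-based qHTS: stable cells, 24 h exposure to five compound concentrations, CCCP as control. Fixed cells stained for PINK1 plus nuclear, mitochondrial and cell markers, cytometer read.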
# The depositor's hits bear a star; ? = inconclusive; . = no result given; & = joins results of further samples; [ ] = dose if it differs, or a comment.
SMILES,gsp ag,ClpP mod,Sfp inh,gsp antagonist,D2 agonist,Menin MLL FP FL,PINK1 expr mod
O=C(Nc1cccc2ccccc12)N1CC=CCC1,-8.9%,28.2µM*,4.3%,-1.2%,-0.5,3.7,-0.8%
O=C(c1ccc(S(=O)(=O)NCc2ccco2)cc1)N1CCN(Cc2ccc3c(c2)OCO3)CC1,4.0%[15.4 µM],1.0%,12.2%,-8.7%,-4.8,-1.0,2.0%
CCOC(=O)c1c(NC(=O)COC(=O)C2CC2C)sc(C)c1C (stereo unspecified),-3.9%[15.4 µM],-0.2%,-10.6%,-6.1%,4.3,1.4,0.4%
O=C(Nc1ccc2c(c1)OCO2)c1cc(-c2ccncc2)nc2ccccc12,-13.8%[15.4 µM],.,-4.7%,?,8.2,2.5,5.8%
O=C(Nc1ccc2c(c1)OCO2)c1ccc(CN2CCOCC2)cc1,-17.4%,-0.7%,10.2%,-3.2%,-3.3,0.5,-1.1%
CCOC(=O)C(CC(=O)O)=C(c1ccccc1)c1ccccc1,1.2%[15.4 µM],-1.9%,10.3%,0.6%,0.2,-2.3,-0.2%
COc1ccc(OC)c(N(CC(=O)N2CCOCC2)S(C)(=O)=O)c1,-16.3%[15.4 µM],-1.4%,8.1%,6.3%,3.3,1.2,0.3%
CC(C)(C)n1ncc2c(=O)n(CC(=O)NCc3ccccc3)cnc21,-6.4%,0.1%,10.8%,14.9%,-5.0,5.7,10.6%
C=CCn1c2ccccc2c2nnc(SCCCn3c(=O)[nH]c4ccccc43)nc21,?,-0.3%,?,-17.1%,1.9,0.3,-2.3%
C[C@@]12C(=O)N(c3cccc(F)c3)C(=O)N1[C@H](c1ccc(F)cc1)[C@@H]1C(=O)N(C3CCCCC3)C(=O)[C@@H]12,.,-0.6%,4.1%,-0.3%,-1.4,2.0,0.4%
CS(=O)(=O)N1N=C(c2cccs2)CC1c1ccccc1O (stereo unspecified),-2.8%[15.4 µM],.,11.1%,-7.1%,-7.6,10.8,7.6%
O=C(CN1CCOCCOCCN(CC(=O)Nc2ccccc2)CCOCC1)Nc1ccccc1,-40.3%[inhibitor],-1.1%,2.1%,14.2%,-4.7,-0.9,1.6%
COc1cc(C2c3cc4c(cc3OC(NCCc3ccccc3)C2C)OCO4)cc(OC)c1OC (stereo unspecified),2.3%,-3.7%,.,12.2%,8.1,.,5.7%
O=C(NCCc1ccccc1)C1CCN(c2nc3ccccc3o2)CC1,?,-0.7%,11.5%,-5.6%,-2.1,5.7,3.3%[38.3 µM]
O=S(=O)(c1ccc(Cl)c(C(F)(F)F)c1)N1CCN(c2ccccn2)CC1,-10.4%[15.4 µM],.,9.2%,-4.3%,1.0,-0.5,3.9%
Cc1cc(-c2nc(-c3ccc(C(C)(C)C)cc3)no2)no1,-3.7%,-0.7%,-7.0%,-5.5%,-1.7,-0.8,2.4%
CCC(Sc1nc(C)cc(=O)[nH]1)C(=O)Nc1ccc(Cl)cn1 (stereo unspecified),-12.5%,-2.4%,29.6%,8.8%,-4.2,3.3,-0.6%
O=C(CN1C(=O)C2C3C=CC(C3)C2C1=O)OCC(=O)c1ccc([N+](=O)[O-])cc1 (stereo unspecified),-0.3%[15.4 µM],.,?,7.2%,-3.9,-3.9,0.4%
Cc1nc(CCNC(=O)c2cc(COc3ccc(F)cc3Cl)on2)sc1C,-2.0%,-12.2%,39.8µM*,-16.7%,-0.5,3.8,4.0%
COc1ccc(CCN2CN(S(=O)(=O)c3ccc(C)cc3)c3nc4ccccc4nc32)cc1OC,-12.9%,6.6%,14.4%,-0.4%,0.5,-2.3,13.1%
CCN(CC)C(=O)C1=C(C)N(Cc2ccc(C(C)(C)C)cc2)C(=O)C(CC(=O)NCc2ccco2)C1 (stereo unspecified),?,0.4%,.,.,-3.3,.,0.7%
C(=N\Nc1nc2ccccc2[nH]1)/c1ccc2ncccc2c1,-18.9%[15.4 µM],.,-23.8%,-3.0%,6.9,8.2,3.0%
COc1ccc(-n2c(C)cc(C(=O)CN3C(=O)c4ccccc4C3=O)c2C)cc1,-28.0%[15.4 µM],1.7%,4.2%,-28.3%,-2.7,3.0,4.0%
O=C(c1ccncc1)N(Cc1ccco1)Cc1cc2ccccc2[nH]c1=O,-29.9%,-28.3%,6.5%,5.4%,-2.9,-0.5,-2.4%
CCN1C(=O)C(O)(CC(=O)c2cc(C)ccc2C)c2ccccc21 (stereo unspecified),0.0%,-2.3%,11.3%,-0.5%,-2.8,1.9,-1.2%
Nc1cc(C(=O)OCC(=O)c2ccc(CC(=O)N3CCOCC3)s2)ccc1Cl,4.0%,-0.6%,.,2.3%,0.7,.,-0.3%
CC(C)n1[nH]c2ccccc2c1=O,.,5.2%,.,.,8.4,.,1.3%
Cn1ccnc1Sc1ccccc1[N+](=O)[O-],-14.4%,0.6%,-7.7%,8.0%,2.3,-0.4,1.0%
COc1ccc(C(=O)NCC(=O)N2CCN(c3ccc(F)cc3)CC2)cc1,-13.1%,.,17.5%,-2.4%,-3.0,2.6,0.2%
CCN(Cc1ccccc1)S(=O)(=O)c1ccc(S(=O)(=O)N(Cc2ccccn2)Cc2ccco2)cc1,26.3%,0.8%,17.0%,5.8%,-1.0,1.0,11.2µM*
Cc1[nH][nH]c(=O)c1C(c1ccc(-c2ccc(Cl)cc2)o1)c1c(C)[nH][nH]c1=O,?,-3.6%,39.8µM*,1.6%,-10.7,5.4,0.3%
NC(=O)C1(c2ccccc2)CCCN1C(=O)c1ccccc1Br (stereo unspecified),-1.1%,-1.3%,16.2%,1.4%,3.3,-1.1,-0.1%
CCOC(=O)Cn1nc(NC(=O)c2cc(OC)cc(OC)c2)cc1C,5.8%,-3.9%,-3.9%,-8.9%,1.1,0.8,-0.3%
COc1ccc(NS(=O)(=O)c2cc(-c3nnnn3C)ccc2OC)cc1,0.0%,1.0%,11.0%,-5.5%,-1.3,1.0,4.5%
CC(=O)c1sc(N/N=C/c2cccc([N+](=O)[O-])c2)nc1C,18.5%,.,-7.7%,4.1%,-3.3,-12.0,12.9%
Cc1ccc(NC(=O)Cn2cccc2)cc1C,11.7%,-0.1%,9.0%,12.3%,-3.7,4.7,-3.7%[38.3 µM]
CCc1cc(=O)oc2c3c(cc(OCC(=O)NCCCOC)c12)OC(C)(C)CC3,42.6%,3.9%,19.8%,-1.1%,6.0,-0.7,-0.3%
Oc1ccc(Nc2ncnc3ccccc23)cc1,11.3%,-6.5%,2.2%,3.3%,-2.9,0.4,-0.4%
Cc1ccc(NC(=O)c2ccc3c(SCC(=O)O)c4c(nc3c2)CCCC4)c(Br)c1,12.6µM*,-3.6%,4.8%,-22.4%,-0.5,.,1.3%
CN1/C(=C\C(=S)NC(=O)c2ccc([N+](=O)[O-])cc2)C(C)(C)c2ccccc21,-33.9%[inhibitor],0.5%,?,11.4%,-0.6,0.8,7.2%
CC(=O)N1c2ccc(S(=O)(=O)NCCc3ccc(Cl)cc3)cc2CC1C (stereo unspecified),-4.7%,-1.2%,17.0%,-19.8%,1.3,.,1.2%
CCNC(=S)N1CCN(c2ccccc2OCC)CC1,?,-3.4%,-1.5%,3.9%,-0.3,3.9,-0.3%
Cc1cccc(NC(=S)NC2CC3CCCC(C2)N3Cc2ccco2)c1 (stereo unspecified),8.5%,-1.2%,11.3%,-3.6%,-3.0,-0.1,-1.1%
COc1ccc(/C=C2\SC(=S)N(NS(=O)(=O)c3ccc(C)cc3)C2=O)c(OC)c1,10.2%[15.4 µM],.,-25.6%,50.1µM*,-4.4,2.0,-1.1%
COc1ccc(N(CC(=O)Nc2nccs2)S(=O)(=O)c2c(C)[nH]c(=O)[nH]c2=O)cc1,25.9%,1.9%,0.9%,0.7%,-0.8,-0.1,1.0%
C/C=C\C(=O)Nc1cccc(C2=NOC3(C2)C[C@@H](C(N)=O)N(C(=O)c2ccc(OC)cc2)C3)c1 (stereo partly specified),-16.1%,-2.7%,14.1%,3.9%,-4.4,3.8,-0.7%
COc1ccc(C2CC(=O)N(C)c3ccccc3S2)cc1 (stereo unspecified),32.2%[15.4 µM],.,3.7%,2.5%,1.7,-4.8,8.3%
Cc1ccc(NC(=O)Cn2c(CCC(=O)O)ccc2-c2ccc(Cl)cc2)cc1,26.0%,-7.9%&-4.2%,4.0%,4.0%,1.2,-22.9,2.4%&1.5%
COc1cc(/C=C2/SC(=S)N(CC(=O)O)C2=O)ccc1OC(=O)c1cccs1,-0.1%,-3.3%,?,-13.5%,-2.8,?,1.1%
CN1CCSc2ccc(C(=O)Nc3ccc(Cl)cc3)cc21,?,.,5.7%,?,1.5,3.6,16.3%
CC(C)(C)OC(=O)C[C@@H]1C/C=C\C[C@@H](CC(=O)N[C@@H](CO)Cc2ccccc2)C(=O)NC[C@@H](c2ccccc2)OC1=O,-9.6%,0.7%,.,-1.4%,5.2,.,-0.5%
Cc1ccc(-c2nnn(CC(=O)N(c3ccccc3)C(C(=O)NCC3CCCO3)c3cccs3)n2)o1 (stereo unspecified),15.2%[15.4 µM],.,10.8%,-2.6%,-2.7,4.3,7.4%
COc1ccc([N+](=O)[O-])cc1N(CC(=O)NC(C(C)C)C(C)C)S(C)(=O)=O,6.7%[15.4 µM],.,12.4%,1.9%,-1.4,-5.0,2.5%
